Source: PubChem (National Center for Advancing Translational Sciences (NCATS))
VDR inh: blocks the human vitamin D receptor. P11473. VDR-SRC2-3 peptide fluorescence polarization, 2 h. Potency, µM, inactives show max response, negative = inhibition, usual class: inhibitors. 400,000 tested, 0.93% active. AID 504847; active = well fitted inhibition curve with a large enough effect; inconclusive = small, poorly fitted or top-dose-only effect, or another doubt; inactive = no such curve, though single readings can be large or run the other way; note: series mostly up to about 120 µM
Target sequence (P11473 whole entry, looked up): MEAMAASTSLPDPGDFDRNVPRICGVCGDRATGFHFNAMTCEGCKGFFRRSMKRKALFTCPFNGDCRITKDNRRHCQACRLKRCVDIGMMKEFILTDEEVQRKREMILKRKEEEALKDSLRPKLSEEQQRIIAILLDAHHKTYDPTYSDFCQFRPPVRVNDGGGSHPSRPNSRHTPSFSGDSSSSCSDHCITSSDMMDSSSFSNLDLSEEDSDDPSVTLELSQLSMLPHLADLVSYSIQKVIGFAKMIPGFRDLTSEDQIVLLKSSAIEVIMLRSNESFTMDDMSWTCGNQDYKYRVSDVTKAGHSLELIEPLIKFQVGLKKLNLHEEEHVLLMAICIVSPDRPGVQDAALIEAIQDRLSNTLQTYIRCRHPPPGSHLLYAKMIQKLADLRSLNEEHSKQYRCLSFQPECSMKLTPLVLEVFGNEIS
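After 23 nl compound addition and a short centrifugation, plates sat for 2 hours at ambient temperature; polarization of fluorescence then indicated loss of VDR binding to peptide SRC2-3.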
Numbers without * were called inactive; u = inconclusive; & = joins results of further samples. % is set by controls: 0 for no effect and ±100 for the full control effect; potency is the fitted concentration of half-maximal effect. The list is partial; the hit share may differ from the screen's.

item	Compound	VDR inh
1	Cc1ccc(S(=O)(=O)n2c3ccc(Cl)cc3c3nc(C)sc32)cc1	-13.5%
2	CCOC(=O)c1ccccc1NC(=O)C1CCN(c2ncnc3sc(C)c(C)c23)CC1	0.9%
3	O=S1(=O)CCOC[C@H](CC2CCCCC2)N1Cc1ccc(F)cc1	-8.6%
4	CC1(C)CC2(CC(C)(C)NC(=O)N2)NC(=O)N1	-1.4%
5	O=Cc1cn(CC(=O)Nc2ccc(F)cc2)c2ccccc12	-1.4%
6	Cc1ccc(NC(=O)CN2C(=O)NC3(CCc4ccccc43)C2=O)cc1 (stereo not given)	-0.4%
7	COc1cc(CN(C(=O)c2cccc(C)c2)c2ccccn2)cc(OC)c1OC	13.3%
8	Cc1ccc(CNC(=O)CSc2nc(=O)[nH]c3c2CCCC3)cc1	0.9%
9	COc1cccc(C(=O)NCCSCc2c(F)cccc2Cl)c1	u
10	C=CCn1c(SCC(=O)NC2CCCCC2)nnc1-c1ccc(OC)cc1	-27.4%
11	CCOC(=O)c1cnc2cc(C)nn2c1-c1ccccc1	9.3%
12	CCCc1ccc(-c2cc(C(=O)N3CCN(c4ccccn4)CC3)c3ccccc3n2)cc1	6.8%
13	COc1ccc(-c2oc3ccc(-c4cc(OC)c(OC)c(OC)c4)cc3c2C(=O)c2ccc(OC)nc2)cc1	-4.2%
14	CCOCCCNC(=O)c1cc(Nc2ccc(OC)cc2OC)nc2ccccc12	6.6%
15	CCN(CC)CCCN(Cc1cc2cc3c(cc2[nH]c1=O)OCO3)C(=O)Nc1ccccc1OC	1.9%
16	Cc1ccc(S(=O)(=O)N2CCOCC2)cc1NC(=O)COc1ccc2c(C)cc(=O)oc2c1	-13.0%
17	Fc1ccc(CSc2nncn2NCc2ccc3c(c2)OCO3)cc1	4.6%
18	COc1ccccc1NC(=O)N1C2CCCC1CC(NC(=O)c1ccccc1)C2 (stereo not given)	9.1%
19	CN(C)CCNc1ncnc2c1sc1nc(N3CCOCC3)c3c(c12)CC(C)(C)SC3	-10.6%
20	Cn1cnnc1SCC(=O)Nc1ccc(S(=O)(=O)N2CCOCC2)cc1	-9.2%
21	COc1ccccc1NC(=O)CSCc1ccc([N+](=O)[O-])cc1	12.0%
22	CN(C)S(=O)(=O)c1ccc2c(c1)nc1n2CCC1	u
23	O=C(Nc1ccccc1F)c1ccc(CSc2ccccc2)o1	3.2%
24	CNc1ccc(C2(O)C(=O)c3ccccc3C2=O)cc1	-5.0%
25	Cc1csc(=O)n1CCC(=O)NCc1ccc(F)cc1	20.2%
26	COn1c(SCc2ccc(Cl)cc2)nc2ccccc2c1=O	-0.4%
27	Oc1ccc(Cl)cc1C1C=C(c2ccc3c(c2)OCO3)NC(c2cc(Br)ccc2F)N1 (stereo not given)	u
28	Cc1nn2c3c(cnc2c1-c1ccc(F)cc1)C(=O)CC(c1ccccc1)C3 (stereo not given)	-13.4%
29	COCCCNc1ncnc2ccc(C)cc12	-0.8%
30	Nc1nc(Cl)cc(Nc2ccccc2Cl)n1	9.4%
31	Cc1ccc(S(=O)(=O)N2CCN(C(=O)N3CCOCC3)C2C)cc1 (stereo not given)	16.4%
32	CCCCN(CC)C(=O)c1ccc(Cl)cc1	7.4%
33	CC(C)(C)NCCCCOc1ccc(F)cc1	-2.7%
34	COCCn1c(N)c(C#N)c2nc3ccccc3nc21	9.6%
35	CN1CCN(CC(O)COCCOc2ccc(Br)cc2)CC1 (stereo not given)	25.1µM*
36	O=C(Nc1nc(-c2cccnc2)cs1)c1ccc([N+](=O)[O-])cc1	-13.5%
37	CC1CN(Cc2nnc(-c3ccccc3)o2)CC(C)O1 (stereo not given)	0.2%
38	c1cnn(-c2cncc(-n3cccn3)n2)c1	0.1%
39	Cc1cc(C)n(/N=C/c2c[nH]c3ccccc23)c(=O)c1	-8.7%
40	NC(=NCc1ccc2c(c1)OCO2)NC(=O)c1ccccc1	-17.4%
41	COc1cc(C2C(C(C)=O)=C(O)C(=O)N2CCc2c[nH]c3ccccc23)ccc1O (stereo not given)	-9.1%
42	COc1ccc(OC)c(NC(=O)Cn2cc(C#N)c3ccccc32)c1	-7.0%
43	COc1cccc(NC(=O)CSc2nnnn2C(C)C)c1	-7.7%
44	CCCS(=O)(=O)N1CCCC(C(=O)NCc2ccc(C)cc2)C1 (stereo not given)	15.4%
45	Cn1c(=O)[nH]c(=O)c2c1nc(Br)n2C/C=N/NC(=O)c1ccccc1	4.5%
46	O=C(Nc1ccnc(-c2cccnc2)n1)c1ccc(Cl)cc1	0.3%
47	COc1ccc(NC(=O)C2CCN(S(=O)(=O)c3ccc(N4CCCC4=O)cc3)CC2)cc1OC	-8.5%
48	COc1ccccc1C1C2C(=O)N(c3ccccc3)C(=O)C2ON1c1ccccc1 (stereo not given)	8.1%
49	Cc1nc(-c2ccc(Cl)cc2)sc1C1(C)CC(c2ccc([N+](=O)[O-])cc2)=NO1 (stereo not given)	8.0%
50	CC(=O)Nc1nc(-c2ccccc2)c(-c2ccccc2)s1	3.9%

New compounds follow:
item	Compound	VDR inh
51	CCC(C)N1CCC(Oc2ccc(C(=O)NCc3ccccn3)cc2)CC1 (stereo not given)	-2.2%
52	Oc1ccccc1N1CCN(c2ncnc3scc(-c4ccc(F)cc4)c23)CC1	-7.6%
53	COc1ccc(S(=O)(=O)NCc2ccccn2)c(C)c1C	u
54	Cc1cccc(CNC(=O)C2CCC(=O)N(C3CC3)C2)c1 (stereo not given)	-7.8%
55	O=C(C/C(=N/O)c1ccccc1O)C(F)F	6.5%
56	CC1CCN(c2c(NCC3CCC(C(=O)NC4CCCCCC4)CC3)c(=O)c2=O)CC1 (stereo not given)	-2.6%
57	S=C1NC[C@H](CC2CCCCC2)N1CC1CCCCC1	u
58	Cc1cccc(C(=O)O/N=C(\N)c2ccc(Cl)cc2)c1	-18.8%
59	Cc1ccc2nc(N3CCN(C)CC3)c(C#N)cc2c1	0.4%
60	CC(C)(C)OC(=O)N1CCC2(CC1)Oc1ccc(F)cc1C(=O)C21CC(c2ccccc2)=NO1 (stereo not given)	-4.7%
61	CCCCCOc1ccc(NC(=O)C2OC3OC(C)(C)OC3C3OC(C)(C)OC23)cc1 (stereo not given)	-1.8%
62	CCc1nc2sc3c(N4CCC(C)CC4)ncnc3c2c2c1CCCC2	1.6%
63	COc1cccc([C@@H]2Oc3ccc(OC)cc3C[C@H]2O)c1	-0.9%
64	COc1ccc(C)cc1Nc1ncnc2c1c(-c1ccccc1)cn2-c1ccc(C)cc1	7.1%
65	O=C(CN1C(=O)CCC1=O)Nc1nc(-c2ccccn2)cs1	-19.8%
66	Cc1ccc(S(=O)(=O)NC(=O)Nc2ccc(C)cc2C)cc1	9.5%
67	COCCNC(=O)CSc1nc2ccc(N3CCOCC3)cc2c(=O)n1Cc1ccc(OC)cc1	-16.1%
68	O=C(NCN1CCCCC1)c1cnccn1	-7.6%
69	COc1cc(Br)cc(CN2CCN(C=O)CC2)c1O	10.4%
70	COc1cc(NC(=S)N(C)CCC#N)c(OC)cc1Cl	11.5%
71	COC(=O)c1cc(-c2cccc(OC)c2)c2c(=O)[nH]c(=O)n(C)c2n1	17.2%
72	CCCOc1ccc(C(=O)ON=C2CCN(C)CC2)cc1	2.0%
73	COc1ccc(OC)c(-c2cc(C(=O)NC3CCCC3)c3ccccc3n2)c1	-4.3%
74	O=C(Nc1ccc(S(=O)(=O)N2CCCCC2)cc1)c1ccc(Cl)nc1	-1.4%
75	O=C1Cc2ccccc2C(=O)N1c1ccc(F)cc1Cl	7.5%

Entries above with bromine:
item	Compound	VDR inh
27	Oc1ccc(Cl)cc1C1C=C(c2ccc3c(c2)OCO3)NC(c2cc(Br)ccc2F)N1 (stereo not given)	u
35	CN1CCN(CC(O)COCCOc2ccc(Br)cc2)CC1 (stereo not given)	25.1µM*
45	Cn1c(=O)[nH]c(=O)c2c1nc(Br)n2C/C=N/NC(=O)c1ccccc1	4.5%
69	COc1cc(Br)cc(CN2CCN(C=O)CC2)c1O	10.4%

Going on with the list:
item	Compound	VDR inh
76	CCCc1nc2c([nH]1)C(c1cccnc1)C(C#N)=C(N)O2 (stereo not given)	-28.8%
77	Cc1ccc2c(c1)C(=O)C(=O)N2CC(=O)Nc1ccc(N2CCOCC2)cc1	-13.6%
78	Cc1cccc(CNc2cc(-c3cccnc3)ncn2)c1	-5.3%
79	COc1ccc(C(=O)c2sc3nc(-c4ccccc4)ccc3c2N)cc1	3.2%
80	CCCOc1ccc(CC2CCC(=O)NC2=O)cc1 (stereo not given)	7.8%
81	COCC(=O)N(C)c1nnc(-c2cnc(C)cn2)s1	11.5%
82	COc1ccc(CN(Cc2ccc(C(=O)O)cc2)C(=S)Nc2ccccc2Cl)cc1OC	14.4%
83	CCc1ccc([C@@H]2CC=C(C(=O)O)CN2S(=O)(=O)c2ccc(C)cc2)cc1	-3.9%
84	C=C(C(C)=O)C(O)c1ccc(C(F)(F)F)cc1 (stereo not given)	-8.6%
85	Cn1c(=O)c(=O)n(C)c2cc(S(=O)(=O)N3CCCC3C(=O)Nc3cccc(F)c3)ccc21 (stereo not given)	-8.1%
86	Cc1ccc2c(=O)c(C(=O)c3cccc(Cl)c3)cn(CC(=O)NCc3ccc(F)cc3)c2n1	12.3%
87	Cc1cccc(C(=O)NC(=S)NNC(=O)c2ccc(Cl)cc2)c1	-4.7%
88	CCc1nn(CC(=O)NCCc2ccc(OC)cc2OC)c(=O)c2cc3occc3n12	0.8%&-5.4%
89	COc1ccccc1NS(=O)(=O)c1cc(NC(=O)c2cccs2)ccc1N1CCOCC1	-7.1%
90	O=C(Cn1nc(-c2ccc(Cl)cc2)c2ccccc2c1=O)Nc1cccc(C(F)(F)F)c1	u
91	COc1ccc(OC)c(NC(=O)COC(=O)CCc2nc3ccccc3c(=O)[nH]2)c1	-20.8%
92	COc1ccc(Cl)cc1NC(=O)C1CC(c2ccccc2O)=NO1 (stereo not given)	6.1%
93	CC1CCCCC1NC(=O)C1CCN(S(=O)(=O)c2ccc3c(c2)CCC(=O)N3)CC1 (stereo not given)	-13.1%
94	COc1ccc(CCNC(=O)Cn2nnc(C(=O)Nc3cccc(C)c3C)c2N)cc1OC	-5.0%
95	Cc1cc(C)c2nc(/N=C(\N)NC(=O)Nc3ccccc3)nc(C)c2c1	8.2%
96	CC(=O)Nc1ccc(S(=O)(=O)Nc2nc3ccccc3nc2Nc2ccccc2)cc1	-8.9%
97	C/C(=N\Nc1ccc([N+](=O)[O-])cc1[N+](=O)[O-])C(C)(C)C(C(=O)O)C(=O)O	2.2%
98	CSc1ccc(-c2nc3c(C)cccn3c2Nc2ccc3c(c2)OCCO3)cc1	1.3%
99	COc1ccc(N(CC(=O)NCCC2=CCCCC2)S(=O)(=O)c2ccccc2)cc1OC	18.4%
100	O=C1CC(Nc2ccc3ccccc3c2)C(=O)N1Cc1ccccc1 (stereo not given)	-2.8%

Structures listed so far shown as hits in VDR inh.
item	Compound	VDR inh
35	CN1CCN(CC(O)COCCOc2ccc(Br)cc2)CC1 (stereo not given)	25.1µM*

New compounds follow:
item	Compound	VDR inh
101	CCC(Oc1ccccc1)C(=O)Nc1nnc(C)s1 (stereo not given)	-14.2%
102	CCOC(=O)C(NC(C)=O)C(OC(C)=O)c1cccc(N(CCO)CCO)c1 (stereo not given)	3.4%
103	CCCn1c(=O)[nH]c(=O)c2c1nc(-c1ccc(OC)c(Br)c1)n2CCOC	3.5%
104	CC(C)c1ccc(NC(=O)COc2ccc(S(=O)(=O)N3CCOCC3)cc2)cc1	16.4%
105	COc1ccc(NC(=O)Cc2c(C(=O)O)[nH]c3ccccc23)cc1OC	4.2%
106	CC(C)(C)c1cc(=O)n2c(C#N)c(C#N)nc2[nH]1	-1.1%
107	CCOC(=O)N1CCN(C(=O)c2ccc(Cn3c(=S)[nH]c4cc(OCC)c(OCC)cc4c3=O)cc2)CC1	-10.6%
108	COc1ccc(Br)cc1CNC(=O)c1cc(=O)[nH]c2ccc(S(=O)(=O)N3CCCCC3)cc12	2.6%
109	Cc1ccc(C(=O)NC2CC3CCCC(C2)N3C(=S)NCc2ccco2)cc1 (stereo not given)	-4.2%
110	OCCCN=c1cc(-c2ccccc2)oc2ccc(Cl)cc12	5.9%
111	Oc1ccc(-c2cn3c(n2)SCC3)cc1	-5.9%
112	Cc1ccc2c(c1)C1CC(C)(O2)N(c2cccc(C(=O)NCc3ccccn3)c2)C(=O)N1 (stereo not given)	-9.0%
113	COc1ccccc1N1CCN(C(=O)c2c(-c3ccccc3)noc2C)CC1	1.8%
114	COc1cccc(CN(C)C(=O)CCc2nnc(-c3ccsc3)o2)c1	-15.1%
115	COc1ccc(NC(=O)CSc2ccc(-c3cccs3)nn2)cc1	4.4%
116	COc1ccc(S(=O)(=O)NCCc2ccccc2)cc1	-9.1%
117	Cc1ccc(C=C2C(=O)c3ccccc3C2=O)s1	22.2%
118	COc1ccc(C(=O)NCC(=O)N2CCC(Cc3ccccc3)CC2)cc1OC	6.8%
119	CN1CCN(C(=S)c2ccc(N(C)C)cc2)CC1	u
120	CN(C)C1=NCCN1CCCC1CCCCC1	u
121	Nc1nc(N)c2ncc(C(=O)CCc3ccccc3)nc2n1	u
122	O=S(=O)(c1ccccc1)C1Cc2ccccc2C1Cl (stereo not given)	2.8%
123	Cc1cc(C)c2nc(N3C(=O)C(O)=C(C(=O)c4ccco4)C3c3ccco3)sc2c1 (stereo not given)	u
124	CC(C)OC(=O)CSc1nnc(-c2cnccn2)n1C	1.7%

Laid out differently: four of the compounds above.
# | VDR inh | canonical_smiles
103 | 3.5% | CCCn1c(=O)[nH]c(=O)c2c1nc(-c1ccc(OC)c(Br)c1)n2CCOC
104 | 16.4% | CC(C)c1ccc(NC(=O)COc2ccc(S(=O)(=O)N3CCOCC3)cc2)cc1
105 | 4.2% | COc1ccc(NC(=O)Cc2c(C(=O)O)[nH]c3ccccc23)cc1OC
106 | -1.1% | CC(C)(C)c1cc(=O)n2c(C#N)c(C#N)nc2[nH]1
